Bioassay records: PubChem BioAssay, several laboratories
LANA-H2A inh: blocks KSHV LANA binding to histone H2A/H2B | 320,000 tested, 0.6% active | AID 2629 | cell-free LANA-H2A/H2B peptide, fluorescence polarization | inhibition, % (concentration not given with the values) | Q9QR71; in the data active means inhibition mostly above about 10%, no sharp cut-off; inactive means mostly below about 6.7%;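 further: stock transfer was 7.5 nL into about 10 µL; 0% = median of vehicle wells and 100% = median of positive control wells; one replicate is shown; the record names a cut of 25% in any replicate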
UCH37 DUB inh: blocks the human deubiquitinase UCH37; purified proteasome/UCH37, Ub-AMC cleavage fluorescence; inhibition, % (concentration not given with the values); 330,000 tested, 0.33% active;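 active means mean of two replicates above 20%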;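 further: 0% = compound-free wells with enzyme and 100% = wells lacking proteasome; stock transfer was 100 nL into about 20 µL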
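system = Proteasome-associated human UCH37 deubiquitinase | amount = 0.15 nM proteasome as dispensed | medium = pH 7.4 Tris-HCl (50 mM) with ovalbumin, ATP-MgCl2, DTT | incubation = 30 min preincubation with enzyme, 25 min cleavage at room temperature | detection = AMC fluorescence 355/460 nm | read-out basis = percent inhibition | controls = no-proteasome and no-compound wells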
Beta2AR agonist: human beta-2 adrenergic receptor agonism by FAP; Am2.2-beta2AR cells, FAP receptor internalization, flow cytometry; reference of the scale not given here; response, % (concentration not given with the values); 340,000 tested, 0.43% active; AID 504454;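 active means response above a set limit, near 3 SD of response in nonfluorescent compounds, cut at about 42% in these data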;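 further: stock transfer was 100 nL into about 11 µL; a reference agonist was the positive control; negative values mostly stem from fluorescent compounds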
Target sequence (P07550 whole entry, looked up): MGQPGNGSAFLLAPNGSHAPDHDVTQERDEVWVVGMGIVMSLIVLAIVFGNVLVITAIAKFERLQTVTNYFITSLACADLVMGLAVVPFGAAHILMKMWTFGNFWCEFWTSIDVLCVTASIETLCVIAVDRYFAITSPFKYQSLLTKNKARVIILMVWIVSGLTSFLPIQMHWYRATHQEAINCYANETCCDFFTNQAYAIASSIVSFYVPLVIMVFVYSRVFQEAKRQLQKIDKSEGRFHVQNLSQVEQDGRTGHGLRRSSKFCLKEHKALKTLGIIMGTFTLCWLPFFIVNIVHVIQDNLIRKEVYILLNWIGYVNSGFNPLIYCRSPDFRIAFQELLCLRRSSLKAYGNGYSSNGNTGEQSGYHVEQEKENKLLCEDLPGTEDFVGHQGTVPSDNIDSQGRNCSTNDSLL
HNF4A DNA FP: change in binding of human HNF4 alpha to DNA | 360,000 tested, 0.3% active | HNF4a-FITC DNA binding, fluorescence polarization, 1 h | activity change, % at 10 µM | AID 1224865; in the data active means activity change above about 30%, passing the limit was not always enough;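 further: controls were the assay level and a saturating level of protein; the project sought stronger binding though the title names inhibitors; some compounds called inactive have numbers as strong as hits; positive values seem to mean higher polarization but the record does not say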
Target sequence (P41235 whole entry, looked up): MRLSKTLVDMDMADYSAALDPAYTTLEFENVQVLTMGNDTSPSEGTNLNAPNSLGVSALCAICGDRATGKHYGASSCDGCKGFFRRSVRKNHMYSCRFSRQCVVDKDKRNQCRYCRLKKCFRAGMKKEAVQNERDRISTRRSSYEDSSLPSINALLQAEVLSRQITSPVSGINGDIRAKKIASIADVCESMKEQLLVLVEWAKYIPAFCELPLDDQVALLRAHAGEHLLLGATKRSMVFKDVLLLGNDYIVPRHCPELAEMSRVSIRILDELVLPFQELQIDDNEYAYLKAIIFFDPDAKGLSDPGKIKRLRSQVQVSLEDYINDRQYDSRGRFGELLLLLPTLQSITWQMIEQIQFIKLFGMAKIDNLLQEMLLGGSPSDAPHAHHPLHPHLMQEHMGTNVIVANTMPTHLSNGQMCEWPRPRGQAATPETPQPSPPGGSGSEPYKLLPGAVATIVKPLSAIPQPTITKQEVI
E coli growth: inhibitors of Escherichia coli growth; OD600, 23 h; hits give low values; OD600 absorbance (test concentration not listed); 330,000 tested, 0.21% active;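 active means OD600 absorbance below the run mean of sample wells minus 3.6 SD, in any replicate, cut at about 0.56 in these data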;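 further: stock transfer was 300 nL into about 60 µL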
Vif A3G: inhibitors of Vif binding to APOBEC3G peptide, primary screen, biochemical, TR-FRET, GST-Vif 1-94, biotin-A3G peptide, dose response retest (AID 1117319); TR-FRET GST-Vif / biotin-A3G peptide binding; higher % means a stronger effect; test concentration not given here; strong numbers were not always called active; one-dose inhibition, %; IC50 in µM for titrated hits; 260,000 tested, 0.57% active;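 active means above the screen mean plus three standard deviations and confirmed in dose response; inconclusive means results disagree or hit not tested in dose response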;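 further: Vif residues 1-94 fused to GST binding biotinylated APOBEC3G peptide 110-148; 0% = full assay without inhibitor and 100% = GST in place of GST-Vif; retest series ran down from 100 µM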
Bfl-1 A1 inh: inhibitors of the anti-apoptotic protein A1, read as caspase activation; caspase activation, % (concentration not given with the values); MEF A1-2A-BIM cells, Caspase-Glo 3/7 luminescence, 3 h; percent of clofoctol response, vehicle zero; AID 2462; 330,000 tested, 0.066% active;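 active means over half of replicate activation scores above 10%, or exactly half above 10 with the replicate mean above 10; inconclusive means replicate mean below 10 yet half the replicates above 10; inactive means over half of replicates below 10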;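 further: wells of about 30 µL received 50 nL stock; many hits fall short of the cut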
The depositor's hits bear a star; i = inactive; ? = inconclusive; . = not tested or not shown.

SMILES	LANA-H2A inh	UCH37 DUB inh	Beta2AR agonist	HNF4A DNA FP	E coli growth	Vif A3G	Bfl-1 A1 inh
O=S(=O)(NC1CCCC1)c1cc(F)ccc1F	3.7	2.0	-0.1	2.4	0.656	17.3%	2.0
COc1ccc(S(=O)(=O)N2CC(C)N(S(=O)(=O)c3ccc(OC)cc3)CC2C)cc1 (stereo unspecified)	-1.7	-0.1	.	.	0.694	.	0.4
N#Cc1cccc(NC(=O)C2SC(=Nc3ccccc3)C(C(=O)N3CCOCC3)=C2N)c1 (stereo unspecified)	3.1	5.4	3.7	-0.7	0.669	-10.7%	0.5
COC(=O)c1ccc(CSc2nc3ccc(S(=O)(=O)N4CCOCC4)cc3[nH]2)cc1	-4.3	1.1	3.6	-1.5	0.681	26.9%	0.3
CCn1nc(C)cc1C(=O)N1CCCC(CCC(=O)NCc2ccccc2F)C1 (stereo unspecified)	0.7	2.2	6.0	3.2	0.72	-5.5%	0.6
COc1ccc(C(c2c(C)[nH]n(-c3ccccc3)c2=O)c2c(C)[nH]n(-c3ccccc3)c2=O)cc1OC	2.9	18.3	2.0	0.5	0.642	.	1.0
CC(=O)Cn1c(CN2CCN(C(=O)c3ccco3)CC2)nc2c1c(=O)n(C)c(=O)n2C	1.3	-0.3	5.6	-0.1	0.669	1.5%	0.3
CC(=O)N[C@H]1C[C@@H]1c1ccccc1	-4.1	2.1	2.1	0.0	0.736	1.0%	0.5
O=C(CCCCl)Nc1c2c(nn1-c1ccccc1)CSC2	-3.4	4.0	-4.5	1.8	0.712	-3.7%	0.6
CCCN1C(=O)/C(=C/c2ccc(OCc3ccc(C(=O)O)cc3)c(OC)c2)NC1=S	-0.8	8.4	14.9	1.0	0.591	.	1.9
CNC(=S)Nc1cccc(C(=O)OC)c1	-4.0	.	-0.5	0.6	.	10.2%	0.0
COc1cccc(NC(=O)COC(=O)c2nc3nccc(C)n3n2)c1	1.9	2.8	1.2	1.3	0.645	-3.2%	0.4
Cc1ccc(S(=O)(=O)N2CCN(C(=O)c3cc(S(=O)(=O)N(C)C)ccc3N3CCCC3)CC2)cc1	2.0	6.6	-0.8	-1.9	0.674	-0.8%	0.4
CCOC(=O)c1cc2occc2n1CC(=O)NC1CCC(C)CC1 (stereo unspecified)	5.0	4.2	1.0	0.4	0.661	-1.7%	-0.3
CCCc1nc2c(nnn2Cc2ccccc2Cl)c(=O)[nH]1	-8.4	2.6	-10.7	0.5	0.685	-1.0%	0.9
COc1ccc(F)c(CN2CCN(CCc3ccccc3)C(CCO)C2)c1 (stereo unspecified)	-1.1	2.1	6.1	0.5	0.612	.	0.7
CC(C)Oc1ccc(C(=O)N/N=C/c2ccc(-c3ccc(S(=O)(=O)Nc4ncccn4)cc3)o2)cc1	-1.9	.	5.7	0.0	.	13.7%	0.7
COc1ccc(C(=O)NN=C2CCCC2)cc1	-1.4	2.0	-8.6	-2.1	0.688	7.1%	0.9
Cc1cc(C)nc(SCc2nnc(SCC(=O)O)n2-c2ccccc2)n1	8.4	0.1	-4.4	2.9	0.73	-0.3%	0.8
O=C(CC1SC(=Nc2ccccc2)N(CCCO)C1=O)Nc1ccc(Cl)cc1 (stereo unspecified)	0.4	2.3	9.6	-0.2	0.688	-6.7%	0.6
CN(C)c1ccc(S(=O)(=O)N(C)C)cc1NC(=O)Cc1cccc2ccccc12	0.8	2.5	-1.4	0.9	0.713	.	1.8
CC(=O)Nc1ccc(NC(=O)c2cccc(C(=O)OC(C)C)n2)cc1	-0.3	4.5	-5.0	-3.4	0.728	-3.1%	-0.1
COc1ccc(C)cc1Nc1n[n+](C)c(-c2ccc(O)cc2O)s1	0.6	22.5*	-3.3	1.8	0.722	.	-0.3
CC(C)N(C(=O)C(F)(F)F)C(C(=O)NC1CCCCC1)c1ccncc1 (stereo unspecified)	2.1	4.3	2.4	-0.4	0.699	4.7%	0.1
CCc1cc2cccc(C)c2nc1SCC(=O)NC1CCCC1	2.1	6.4	-0.4	2.1	0.72	.	0.3
Cc1ccc(S(=O)(=O)NCC(=O)OCCOc2ccc(Br)cc2)cc1	-3.1	0.7	2.0	4.8	0.697	.	0.1
Cc1ccnc(NC(=O)CCC(=O)N(CC(=O)NC(C)(C)C)Cc2ccc3c(c2)OCO3)c1	-5.0	5.2	0.1	2.2	0.648	.	0.4
Cc1ccn2cc(-c3ccc(Br)cc3)nc2c1	-3.3	0.1	-8.0	1.5	0.679	.	-8.2
O=c1c(Cl)c(O)c2cccc3c4ccccc4n1c23	12.9	i	-5.5	2.0	0.679	-7.5%	1.0
COc1ccc([C@H]2CC(=O)C=C(c3ccccc3OC)C2)cc1OC	0.3	1.3	-4.2	-1.4	.	.	0.4
CC(C)c1onc(C(=O)Nc2cccc(Cl)c2)c1[N+](=O)[O-]	0.3	4.6	3.4	0.6	0.72	-6.6%	-0.5
O=C(O)c1ccc(OCCn2ccnc2)cc1	1.4	3.4	-9.5	2.2	0.636	20.7%	-0.4
CCN(CC)CCN1C(=O)C(=O)/C(=C(/O)c2ccc(S(=O)(=O)N3CCOCC3)cc2)C1c1ccc(C)cc1 (stereo unspecified)	-2.0	7.7	-2.7	2.0	0.636	6.3%	0.7
O=C(CSc1n[nH]c(=O)n1Cc1ccco1)c1ccc2c(c1)OCCO2	0.3	4.3	-3.6	1.1	0.653	-25.4%	0.2
COc1ccc(NC(=O)CN2C(=O)C(c3ccccc3)=NC23CCCCCC3)cc1OC	0.1	7.9	-15.8	5.7	0.676	.	-0.5
O=C(Nc1nnc(SCc2ccc(F)cc2)s1)C1Cc2ccccc2CN1C(=O)c1ccco1 (stereo unspecified)	1.5	3.4	2.7	-0.2	0.688	6.8%	-0.3
CCNC(=O)CCSc1nc(C)cc(C)n1	-5.1	1.7	1.2	2.9	0.719	-7.7%	-1.1
CCC(C)c1ccc(OCCn2cc(/C=N/NC(=O)CSc3nnc(C)s3)c3ccccc32)cc1 (stereo unspecified)	-1.0	.	-6.8	-1.9	.	-0.3%	0.2
Cc1nn(C)c(C(=O)N/N=C/c2cccnc2)c1Br	-3.8	.	-2.2	2.4	.	.	0.0
CCN1C(=O)/C(=C/c2nc3ccccc3c(=O)n2-c2ccc(C)cc2)c2ccccc21	-4.8	2.2	18.4	2.3	0.739	?	1.0
Nn1c(SCC(=O)N2CCCCCC2)nnc1-c1ccncc1	-1.1	-2.1	3.4	1.4	0.712	1.7%	-0.1
Cc1ccc(NC(=O)COC(=O)C2COc3ccccc3O2)cc1 (stereo unspecified)	0.2	5.4	-1.6	2.3	0.656	3.0%	-0.4
CCCCC(=O)Nc1ccc(C(=O)NCCc2ccc(S(N)(=O)=O)cc2)cc1	6.5	2.1	4.3	2.8	0.67	-5.6%	0.5
Cc1ccc(C(=O)N/N=C\C=C\c2ccccc2[N+](=O)[O-])cn1	-2.2	.	-1.2	-0.7	.	.	0.8
O=C(O)CCCCCNc1nc(=S)[nH]c2ccccc12	-0.3	3.4	-14.7	0.4	0.667	2.0%	-0.6
CCN(CC(=O)Nc1ccc(C(=O)OC)cc1)Cc1ccccc1	12.3	0.1	-2.1	-4.4	0.706	4.0%	-0.5
CCCCOc1ccc(C(=O)NCC2(c3ccc(OC)cc3)CCOCC2)cc1	-5.9	2.0	-3.9	-1.1	0.649	6.3%	-0.6
COc1ccc(CCN2C(=O)C3C4C=CC(C3C2=O)C2C(=O)N(CCc3ccc(OC)c(OC)c3)C(=O)C42)cc1OC (stereo unspecified)	2.7	3.0	-0.2	4.1	0.658	-0.6%	-0.4
CC(C(=O)O)n1cc(Cl)cn1 (stereo unspecified)	3.1	1.3	-2.8	-1.5	0.684	.	-0.4
CCOc1ccccc1/C=C/C(=O)N1CCN(C(=O)c2ccco2)CC1	7.2	-9.5	84.2*	-1.6	0.689	-1.6%	-0.8
O=C(CSc1nc2ccccc2[nH]1)NCc1ccc2c(c1)OCO2	.	1.1	-2.9	-7.0	0.619	14.1%	0.3
CCn1c(SCC(=O)N(C)C2CCCCC2)nc2cc(S(N)(=O)=O)ccc21	.	2.8	0.5	4.7	0.67	6.9%	.
CCCCNc1c(N)n(CCCC)c(=O)[nH]c1=O	4.6	.	.	.	.	7.0%	-0.2
CCn1c(SCc2ccc(Cl)cc2Cl)nc2nc3c(cc2c1=O)CCCC3	-0.9	4.8	-6.0	1.9	0.727	1.8%	0.5
Cc1ccc(-c2cc(C(=O)NCCCN3CCOCC3)c3ccccc3n2)cc1	-17.6	-74.2	-2.2	2.9	0.672	1.3%	0.4
COC(=O)Cc1c(C)nc2nc(-c3cccnc3)[nH]n2c1=O	-1.2	3.2	-0.1	-0.3	0.669	70.9%	-0.6
CCN(C(=O)COC(=O)CNC(=O)c1ccc(F)cc1)C1CCS(=O)(=O)C1 (stereo unspecified)	-4.7	2.7	-3.4	0.7	0.637	1.5%	1.5
CCN(CC(=O)NCc1ccc(F)cc1)C(=O)/C=C/c1ccc(S(=O)(=O)N(CC)CC)cc1	-3.9	2.0	-5.2	-0.5	0.637	-1.8%	-0.2
COCCCNC(=O)c1oc2ccc(S(=O)(=O)N3CCOCC3)cc2c1C	2.5	3.9	3.6	-0.8	0.664	-6.0%	1.5
COc1ccc2[nH]cc(/C=C/C(=O)c3ccccc3)c2c1	12.7	-4.8	14.1	2.6	0.669	3.1%	-2.7
Next section.
SMILES	LANA-H2A inh	UCH37 DUB inh	Beta2AR agonist	HNF4A DNA FP	E coli growth	Vif A3G	Bfl-1 A1 inh
CCOC(=O)c1c(NC(C)=O)sc2c(OC(C)=O)cccc12	5.3	-2.0	12.4	1.9	0.685	-6.2%	0.3
CCC(C)NC(=O)C1CC(c2cccc(OC)c2)=NO1 (stereo unspecified)	-0.3	1.2	1.6	-2.6	0.723	21.3%	1.1
O=C(COc1ccc2c(c1)CCC2)NCc1ccc(Cl)cc1	i	1.8	-7.1	2.6	0.702	.	-0.4
Cc1cccc(-n2ccc(=O)c(C(=O)Nc3ccc(S(=O)(=O)Nc4nccs4)cc3)n2)c1	-5.5	13.1	0.4	-0.7	0.689	.	0.3
CC(Oc1ccccc1Cl)C(=O)/C=C/N(C)C (stereo unspecified)	2.3	3.5	0.5	5.3	0.648	0.2%	-0.9
O=C(COC(=O)Cn1cnc2ccccc2c1=O)NCc1ccccc1Cl	1.1	0.1	-19.9	-2.7	0.68	5.4%	-0.6
CCOC(=O)CSc1nc(=O)n2cc(C)ccc2n1	6.6	-4.1	5.4	-1.5	0.708	1.6%	-0.5
O=S(=O)(Nc1ccccn1)c1ccc(Cl)c2ccccc12	3.4	2.9	3.4	-2.7	0.715	-7.7%	-0.1
CCc1nc(SCC(=O)Nc2ccc(F)cc2F)c2c(=O)n(C)c(=O)n(C)c2n1	2.5	1.8	-6.4	-0.6	0.7	-3.9%	0.4
COc1ccccc1-c1cc(C(=O)NC2CCN(C)CC2)c2ccc(Cl)c(C)c2n1	1.7	-4.3	36.0	0.2	0.667	-6.7%	0.6
O=C(NCC1COc2ccccc2O1)c1cn(Cc2ccc(F)cc2)nn1 (stereo unspecified)	2.2	0.2	-2.9	0.0	0.727	7.5%	0.0
CC(=O)c1coc2ccc(OCCN3CCCCC3)cc12	-1.4	2.4	6.3	1.3	0.688	-2.5%	0.6
Cc1ccc(CNS(=O)(=O)c2ccc([N+](=O)[O-])cc2)cc1	-1.8	3.5	2.0	-2.2	0.666	.	0.3
